Screening results deposited in PubChem by Johns Hopkins Ion Channel Center.
KCNQ2 enhance = potentiators of rat KCNQ2 potassium channel; B-score at 10 µM; 310,000 compounds, 0.54% hits; Potassium voltage-gated channel subfamily KQT member 2 (Rattus norvegicus), O88943; CHO-K1 KCNQ2, FluxOR thallium flux fluorescence; active compounds read high;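 active means fluorescence ratio B-score at least 3 SD of library B-scores, with initial fluorescence B-score within 3 SD, cut at about 5.3 in these data; same plate scores as AID 2156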;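 further: B-score of peak minus minimum over baseline fluorescence ratio after K+ and Tl+ stimulus; positive B-score means potentiation of KCNQ2 with more thallium influx and brighter signal; only the inactives scoring about 0 or higher are listed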
Target sequence (O88943 whole entry, looked up): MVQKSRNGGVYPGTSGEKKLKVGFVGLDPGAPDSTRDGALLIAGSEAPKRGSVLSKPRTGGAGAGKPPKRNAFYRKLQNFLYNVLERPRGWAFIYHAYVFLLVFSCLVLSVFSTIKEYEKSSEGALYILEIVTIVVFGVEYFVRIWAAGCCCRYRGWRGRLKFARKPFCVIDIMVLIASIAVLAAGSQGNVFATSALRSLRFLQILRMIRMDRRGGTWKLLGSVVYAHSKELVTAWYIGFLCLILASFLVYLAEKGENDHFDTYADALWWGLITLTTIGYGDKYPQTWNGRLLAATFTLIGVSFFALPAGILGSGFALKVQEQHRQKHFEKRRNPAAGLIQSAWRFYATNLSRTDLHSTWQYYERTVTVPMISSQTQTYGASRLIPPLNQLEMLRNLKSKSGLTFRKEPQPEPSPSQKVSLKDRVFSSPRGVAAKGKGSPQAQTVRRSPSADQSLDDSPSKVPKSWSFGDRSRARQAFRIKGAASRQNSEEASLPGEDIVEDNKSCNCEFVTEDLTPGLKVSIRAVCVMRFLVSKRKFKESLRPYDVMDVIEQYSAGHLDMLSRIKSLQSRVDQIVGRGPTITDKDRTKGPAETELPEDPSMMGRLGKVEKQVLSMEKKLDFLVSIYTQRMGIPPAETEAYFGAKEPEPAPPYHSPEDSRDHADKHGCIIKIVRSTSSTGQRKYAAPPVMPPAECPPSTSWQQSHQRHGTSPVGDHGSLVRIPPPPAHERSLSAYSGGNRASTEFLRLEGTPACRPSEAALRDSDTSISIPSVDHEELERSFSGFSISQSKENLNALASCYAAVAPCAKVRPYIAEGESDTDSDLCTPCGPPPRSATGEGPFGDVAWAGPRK
KCNQ2 enhance baseline = further read-out of KCNQ2 enhance, marked with its call; B-score; compound at 10 µM; measured here: initial fluorescence intensity artifact check;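 brightness before thallium and not channel activity; 0 = typical well and far values either way flag optical interference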
* hit, by the source's call. A portion of the library; rates above refer to the full screens.

SMILES	KCNQ2 enhance	KCNQ2 enhance baseline
Cc1cccc(Nc2nc(N)nc(CN3CCC(C)CC3)n2)c1C	0.26	0.23
Cc1ccccc1NC(=O)Cc1nc(COC(=O)c2ccc(Cl)nc2)cs1	0.86	0.58
COc1cccc(C(=O)N/N=c2/oc3ccccc3cc2C(N)=O)c1	2	-1.2
COc1ccc(CN2CCC(=O)N([C@H](CO)c3ccccc3)CC2)cc1OC	0.03	-1.7
Cc1ccc(NC(=O)CSc2nc3ncc(Br)cc3[nH]2)cc1C	0.53	-0.1
C/C(=N\NC(=O)c1nn(C)cc1Br)c1cccc(NC(=O)c2ccncc2)c1	1.7	-0.93
CCCCNC(=O)C1CC(=O)N(C2CCCC2)C1 (stereo not given)	0.31	0.29
COc1ccc(C(=O)NCCCNC(=O)c2cccnc2)cc1Br	0.33	-0.51
O=C(COc1ccc(Cl)cc1Cl)NCCCNC(=O)c1cnccn1	0.05	-0.61
C=CCN=C1S/C(=C/c2cccc([N+](=O)[O-])c2)C(=O)N1CC=C	0.79	-2.2
Cc1cccc(C(=O)NCC(=O)N2CC(=O)Nc3ccccc32)c1	0.35	-0.59
C=C(C)CN(CC)C(=O)CC1C(=O)NCCN1Cc1c(F)cccc1Cl (stereo not given)	0.9	-0.79
COc1ccc(CNC(=O)Cn2nc(Cc3cccnc3)c3ccccc3c2=O)cc1	0.59	0.17
CC(=O)c1c(C)[nH]c(C(=O)COC(=O)CCCOc2ccccc2)c1C	2	1.1
Cc1cc(=O)n2[nH]c(-c3ccsc3-n3c(C)ccc3C)cc2n1	2.6	1
O=C(CSc1nnc(COc2cccc3cccnc23)o1)N1CCCC1	0.32	-1.2
NC(=O)c1ccc(NCC2COc3ccccc3O2)c([N+](=O)[O-])c1 (stereo not given)	0.02	-0.1
COCCc1nc2ccc(C(=O)N(C)Cc3cccc(-n4cccn4)c3)cc2o1	0.4	1.2
O=C(Oc1ccccc1[N+](=O)[O-])c1cccnc1	1.2	-0.57
CCNC(=S)N1CCN(S(=O)(=O)/C=C/c2ccccc2)CC1	0.12	-1.5

The last 2 entries of the section above come first, to join the parts.
SMILES	KCNQ2 enhance	KCNQ2 enhance baseline
O=C(Oc1ccccc1[N+](=O)[O-])c1cccnc1	1.2	-0.57
CCNC(=S)N1CCN(S(=O)(=O)/C=C/c2ccccc2)CC1	0.12	-1.5
CCOc1ccc2c(c1)C(C)=CC(C)(C)N2S(=O)(=O)c1ccc(NC(C)=O)cc1	0.13	-2.4
COc1ccccc1N(Cc1cc(=O)[nH]c2ccccc12)C(=O)c1ccccc1	1.3	1.2
N#C/C(=N\Nc1cccc(C(F)(F)F)c1)C(=O)c1csc(-c2cccnc2)n1	6.4*	-1.6*
COc1cc(C(=O)Nc2ccccc2C2COC(=O)C2=N)cc(OC)c1OC (stereo not given)	1.4	-1.6
CCOc1ccc2[nH]cc(S(=O)(=O)c3ccc(F)cc3)c(=O)c2c1	0.57	-0.07
CC1=NN(C(C#N)c2cccc([N+](=O)[O-])c2)C(C)(C)C1 (stereo not given)	1.5	-0.31
Cc1ccc(S(=O)(=O)N2CCOCC2)cc1C(=O)N(Cc1nnc(-c2ccccc2Cl)o1)C1CC1	0.11	-1.1
COc1ccc(C(C)C)cc1S(=O)(=O)N1CCC(C(=O)NCC2CCCO2)CC1 (stereo not given)	0.57	0.54
O=C(c1ccccc1NS(=O)(=O)c1ccc(F)cc1)N1CCCC1	0.04	3.6
O=C(NCCC1CCCCN1S(=O)(=O)c1cccs1)C(=O)Nc1ccccc1 (stereo not given)	0.01	-0.59
CN(CC(=O)Nc1cccc(F)c1)C(=O)c1cc(S(=O)(=O)N(C)C)ccc1N1CCCC1	0.44	1.2
CCc1c(C(=O)NNC(=S)NCC(C)C)csc1C	0.35	0.27
CC(=O)Nc1ccc(NC(=O)CSc2ccc(-c3ccc4c(c3)OCO4)nn2)cc1	0.54	-0.13
CCN(CC)C(=O)c1ccccc1NS(=O)(=O)c1cccs1	1.2	1.1
CC(=O)Nc1ccc(S(=O)(=O)N(CCO)Cc2ccccc2)cc1	0.07	-1.8
CSCCC(=O)N1CC[C@@H](N2CCN(c3ccccc3F)CC2)[C@H](O)C1	0.13	1.4
COc1ccc(Br)cc1/C=N/NC(=O)C[n+]1ccccc1	0.73	1.2
CCc1ccc(OCCCC(=O)Nc2nccs2)cc1	1.6	1.1
CCOC(=O)/C=C1\SCC(=O)N1CC(=O)NC1CCCCC1	0.01	0.07
CC1CCN(c2ccc(C(=O)O)cc2N)CC1	0.98	-1.1
CCN1CCN(c2nc3c(C)cccn3c(=O)c2/C=C(\C#N)C(=O)NCCCOC)CC1	0.67	0.13
C=CCn1c(SCC(=O)c2cc(C)n(Cc3cccs3)c2C)nnc1-c1ccncc1	0.24	0.76
NC(=S)N/N=C1\CC(n2nnnc2-c2ccccc2)C2COC1O2 (stereo not given)	1.9	-0.91
CCCN1C(=O)C2(C(C(=O)c3ccc(C)o3)=C(O)C(=O)N2CCCN2CCOCC2)c2ccccc21 (stereo not given)	1.2	-1.4
CC(Sc1nc2ccccc2[nH]1)C(=O)Nc1ccccc1F (stereo not given)	0.06	-0.97
O=C(ON=C1CCN(S(=O)(=O)c2ccccc2)CC1)c1ccc(F)cc1	2.6	-3.2
CC(=O)c1ccc(OCc2cc(C(=O)N3CCN(c4ccccc4)CC3C)no2)cc1 (stereo not given)	0.44	-0.9
COc1cc(Nc2nc(SCC#N)nc3ccccc23)cc(OC)c1OC	0.9	-0.67
O=C1CCC(C(=O)NCCN2C(=O)S/C(=C\c3cccnc3)C2=O)=NN1	1.4	-0.03
Cc1nc(-c2ccc(C(=O)Nc3ccccc3F)cc2)cs1	0.17	0.49
CCCCCC(=O)N1CC2(CC(c3cccc(NC(=O)c4ccccc4)c3)=NO2)C[C@@H]1C(N)=O (stereo not given in full)	0.87	0.02
Cc1nc(SCC(=O)NC(C)c2ccccc2)c2oc3ccccc3c2n1 (stereo not given)	0.23	-0.05
CCOC(=O)c1cnn(-c2ccccc2)c1N	1.8	0.91
Cn1c2c(c(=O)n(C)c1=O)C(NS(=O)(=O)c1ccccc1)(C(F)(F)F)C(=O)N2 (stereo not given)	0.2	0.68
Cc1ccc(NS(=O)(=O)c2ccc(NC(=O)C3CCCO3)cc2)cc1 (stereo not given)	0.54	-1.2
Cc1c(Cl)c([N+](=O)[O-])nn1CC(=O)NCc1cccs1	0.59	-0.13
CC(=O)c1ccc(OCCCC(=O)Nc2cc(S(=O)(=O)N(C)C)ccc2C)cc1	0.39	0.07
O=C(Nc1ccccc1)Nc1ccc(-n2ccc(C(F)(F)F)n2)cc1	0.8	-0.04
Cc1ccc(N2CC(C(=O)NCc3ccc4c(c3)OCO4)CC2=O)cc1C (stereo not given)	0.69	0.21
Cc1ccc(S(=O)(=O)NCC(C)n2nc(C)nc2C)cc1 (stereo not given)	0.12	1.2
Cc1ccccc1NC(=O)CSc1nnc(CNC(=O)c2ccco2)n1C	1.7	-1.9
CCC(=O)c1ccc(OCC(O)CN2C(=O)NC(C)(C)C2=O)cc1 (stereo not given)	0.49	1.6
CCN1CCN(CCNC(=O)c2ccc(CS(=O)c3ccc(Cl)cc3)o2)CC1 (stereo not given)	1.2	0.78
Cc1cc(C)cc(NC(=O)C(=O)NCc2ccccn2)c1	1.1	-0.52
CCCn1c(CC)nc([N+](=O)[O-])c1Sc1ccc(F)cc1	0.03	0.72
Cc1csc(NC(=O)CSC2=NCCS2)n1	0.46	-0.47
CC(C)C(=O)Nc1ccc(-c2nc3ccccc3c(=O)o2)cc1	0.73	-0.81
CC(=O)Nc1nnc(SCC(=O)NCC2CCCO2)s1 (stereo not given)	0.07	-0.19
O=C(Nc1ccc(S(=O)(=O)N2CCc3ccccc3C2)cc1)c1ccccc1	0.19	-0.51
CCCNc1c(NS(=O)(=O)c2ccc(Br)cc2)c(=O)oc2ccccc12	0.06	-0.47
CC1CC(=O)N(c2ccc(Br)cc2)C(=O)C1	1.2	-0.57
CC(C)c1nnc(NC(=O)CSc2nnc(-c3ccco3)o2)s1	0.9	-0.15
O=C(Cn1cnc2ccccc21)c1ccc(Cl)cc1	0.86	-1
COCCCNC(=O)CNC(=O)c1nn(-c2ccc(OC)cc2OC)c(=O)c2ccccc12	1.1	0.07
CN(CC(=O)Nc1ccc(F)cc1)C(=O)COC(=O)Cc1c(F)cccc1Cl	0.25	2.2
CCCCCCCC(=O)N1c2ccccc2NC(=O)C1CC(=O)Nc1ccc(C(=O)O)cc1 (stereo not given)	0.07	0
O=C(CN(Cc1cccs1)C(=O)CSc1nnc(COc2ccccc2)o1)NC1CCCC1	0.88	-0.09
COc1ccc2c(c1)c1ncn(CCN3CCCC3)c(=O)c1n2C	1.2	-0.02
CN1CCN(C(=O)CN(Cc2ccccc2)S(C)(=O)=O)CC1	0.74	-0.4
CCO[C@@H]1OC(C(=O)NCc2nc3ccccc3[nH]2)=C[C@H](c2coc3ccccc3c2=O)[C@H]1CCCO	0.03	-1.7

The list goes on:
SMILES	KCNQ2 enhance	KCNQ2 enhance baseline
COc1ccccc1C1/C(=C(/O)c2ccc(C)cc2)C(=O)C(=O)N1Cc1ccco1 (stereo not given)	3.6	-0.1
Cc1cccc(NS(=O)(=O)c2cc(C(=O)N3CCc4ccccc4C3)ccc2Cl)c1C	0.42	-2.2
NC(=O)C1CCN(Cc2nc(-c3cccs3)no2)CC1	1.6	-0.11
CC(=O)N/C(=C\c1ccccc1)C(=O)N1CCOCC1	0.78	0.63
O=c1oc2ccccc2c(Nc2cccc3cccnc23)c1[N+](=O)[O-]	0.68	0
Cn1nnnc1SCC(=O)Nc1ccccc1N1CCOCC1	0.52	2.3
Cc1ccc(C)c(CN2CCCN(C(=O)Cn3ncc4c3-c3ccccc3OC4)C2)c1	2.4	-2.6
COc1cc(O)c(C(CCN2CCCCC2)c2cc(OC)c(OC)c(OC)c2)c(OC)c1 (stereo not given)	0.89	-0.01
CCC(C)Nc1ncnc2c1cnn2Cc1ccc(Cl)cc1 (stereo not given)	0.29	-0.41
COC(=O)N1CCN(c2ccc(C)c(C)c2)CC1	1.9	-1.5
Cc1cc(C)cc(OCC(=O)Nc2cnn(CCCC(=O)O)c2)c1	1.7	-0.17
CC(C(=O)NNS(=O)(=O)c1cccc(C(F)(F)F)c1)n1nnc(N2CCOCC2)n1 (stereo not given)	0.42	0.01
CC(=O)c1ccc(NC(=O)CSc2nnc3ccc(-c4ccccn4)nn23)cc1	0.39	0.28
CC(=O)NC1=NC(=O)CS1	0.99	-0.54
O=C(O)CCCCCNC(=O)c1ccc(C(=O)NCCCCCC(=O)O)cc1	1.2	2.3
C=CCOc1ccc(C(=O)c2ccccc2)c(OCC(=O)NC2(C#N)CCCC2)c1	0.05	0.23
CCCn1c(=O)c2ccccc2n2c(Sc3nnnn3-c3ccccc3)nnc12	0.09	-1.4
CCN(CC)c1cc(Cl)c2nonc2c1N	0.47	2.3
O=C1c2oc3ccccc3c(=O)c2C(c2cccnc2)N1CCCN1CCOCC1 (stereo not given)	0.95	0.18
COc1cc2[nH]c(=O)n(CCC(=O)N3CCc4ccccc4C3)c(=O)c2cc1OC	0.83	0.11

Sorted by number of heavy atoms (descending): 13 of the compounds above
SMILES	KCNQ2 enhance	KCNQ2 enhance baseline
COc1cc(O)c(C(CCN2CCCCC2)c2cc(OC)c(OC)c(OC)c2)c(OC)c1 (stereo not given)	0.89	-0.01
Cc1ccc(C)c(CN2CCCN(C(=O)Cn3ncc4c3-c3ccccc3OC4)C2)c1	2.4	-2.6
COc1cc2[nH]c(=O)n(CCC(=O)N3CCc4ccccc4C3)c(=O)c2cc1OC	0.83	0.11
CC(=O)c1ccc(NC(=O)CSc2nnc3ccc(-c4ccccn4)nn23)cc1	0.39	0.28
O=C(O)CCCCCNC(=O)c1ccc(C(=O)NCCCCCC(=O)O)cc1	1.2	2.3
O=c1oc2ccccc2c(Nc2cccc3cccnc23)c1[N+](=O)[O-]	0.68	0
Cc1cc(C)cc(OCC(=O)Nc2cnn(CCCC(=O)O)c2)c1	1.7	-0.17
Cn1nnnc1SCC(=O)Nc1ccccc1N1CCOCC1	0.52	2.3
CCC(C)Nc1ncnc2c1cnn2Cc1ccc(Cl)cc1 (stereo not given)	0.29	-0.41
NC(=O)C1CCN(Cc2nc(-c3cccs3)no2)CC1	1.6	-0.11
COC(=O)N1CCN(c2ccc(C)c(C)c2)CC1	1.9	-1.5
CCN(CC)c1cc(Cl)c2nonc2c1N	0.47	2.3
CC(=O)NC1=NC(=O)CS1	0.99	-0.54

Following part
SMILES	KCNQ2 enhance	KCNQ2 enhance baseline
COc1ccc(OC)c(/C=N/NC(=O)CSc2nnc(C)n2-c2ccccc2)c1	1.8	-0.49
CCOc1ccc(NC(=O)NC(C)c2ccc3c(c2)OCO3)cc1 (stereo not given)	1.6	0.08
N#Cc1ccc(-c2ccc(F)cc2)nc1SCC(=O)Nc1sc2c(c1C#N)CCC2	0.4	1.1
COc1ccc(C(=O)Nc2ccc(Oc3nc(C)nc4sc(-c5ccccc5)cc34)cc2)cc1OC	0.31	0.22
CCC(=O)Nc1cccc(C2=NOC3(C2)C[C@@H](C(N)=O)N(C(=O)c2ccc(OC)cc2)C3)c1 (stereo not given in full)	0.05	-1
Cc1ccc(NC(=O)COC(=O)C(NS(=O)(=O)c2ccc(Cl)cc2)C(C)O)cc1 (stereo not given)	0.07	-2.1
CC1(C)Cc2ccccc2-c2nnc(-c3ccc4ccccc4n3)n21	1	0.1
CCCCN(C)C(=O)c1nc2ccccn2c1CNC1CCC1	0.01	-0.86
COc1ccc(OCCC(=O)OCC(=O)Nc2ccc(Br)cc2)cc1	0.07	-0.16
C#CCCOC(=O)N1C2=NC(C(=O)OC)=C(C(=O)OC)[C@@H]3N(C)c4ccccc4[C@]23C[C@H]1CO	0.96	0.96
O=C(Nc1cccc(-c2nnc(-c3ccccc3)o2)c1)c1ccco1	1.2	0.15
